Cruzain noTriton: blocks cruzain activity in detergent-free assay | P25779 | purified cruzain, Z-FR-AMC fluorescence, no detergent | Potency, µM, for the others: max response, negative = inhibition, actives largely listed as inhibitors | actives 2.3% (n = 200,000) | AID 1476; active = well fitted curve in the direction sought with a large enough effect; inconclusive = small, poorly fitted or top-dose-only effect, or another doubt; inactive = no such curve, though single readings can be large; an effect the other way counts as inactive or inconclusive;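 also: plate controls were enzyme without inhibitor for no effect and buffer without enzyme for full effect; nearly all actives have a fitted effect of over 40% in size; top concentration of the series not given in the record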
Target sequence (P25779 123-467 limits assumed): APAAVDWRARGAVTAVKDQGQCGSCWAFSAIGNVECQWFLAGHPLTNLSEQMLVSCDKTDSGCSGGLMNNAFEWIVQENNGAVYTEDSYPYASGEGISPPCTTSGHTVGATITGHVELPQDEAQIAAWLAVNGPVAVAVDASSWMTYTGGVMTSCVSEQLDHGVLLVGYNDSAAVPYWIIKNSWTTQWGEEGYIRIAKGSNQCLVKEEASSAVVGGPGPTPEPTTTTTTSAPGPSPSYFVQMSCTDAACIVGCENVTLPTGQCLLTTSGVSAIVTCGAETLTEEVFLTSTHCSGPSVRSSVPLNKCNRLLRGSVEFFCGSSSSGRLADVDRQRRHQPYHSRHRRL
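Purified cruzain at 1.5 nM, pre-incubated 15 min with compound at room temperature in 100 mM sodium acetate pH 5.5, 5 mM DTT, 0.00005% Triton X-100. Reaction started with 2 uM Z-FR-AMC; AMC fluorescence increase over 60 s gives rate.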
LASV entry inh: Lassa virus entry inhibition. AID 540256. Potency, µM (series often up to 37.9 µM), for the others: at the top dose activity change, negative = inhibition, actives largely listed as inhibitors. Lassa virus pseudotype entry inhibition, cell reporter; control for the full effect not named in the record. actives 1.2% (n = 300,000); active means well fitted inhibition curve with a large enough effect; inconclusive means small, poorly fitted or top-dose-only effect, or effect the other way; inactive means flat fitted curve, though single readings scatter; tested in HEK293 cells; also: % is scaled to controls: 0 for no effect and ±100 for the full control effect; nearly all actives have a fitted effect of over 50% in size; luciferase read-out
Cruzain Triton: inhibitors of Trypanosoma cruzi cruzain with detergent. Potency, µM, without a hit: max response, negative = inhibition, most hits filed as inhibitors. purified cruzain, Z-FR-AMC fluorescence, 0.01% Triton. actives 0.43% (n = 200,000); active = well fitted curve in the direction sought with a large enough effect; inconclusive = small, poorly fitted or top-dose-only effect, or another doubt; inactive = no such curve, though single readings can be large; an effect the other way counts as inactive or inconclusive;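 also: plate controls were neutral wells for no effect and buffer without enzyme for full effect; nearly all actives have a fitted effect of over 40% in size; top concentration of the series not given in the record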
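Purified cruzain (1.5 nM final) was preincubated with compounds for 15 min at room temperature in 100 mM sodium acetate pH 5.5, 5 mM DTT, 0.01% Triton X-100. Reaction started with 2 uM Z-FR-AMC; AMC fluorescence change over 60 s gave activity.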
NS1 inh: influenza NS1 inhibition; S. cerevisiae slowed by influenza A NS1, growth recovery by OD600; Potency, µM (titrated, usually from 46.1 µM), for the others: at the top dose activity, positive = more growth; actives 0.4% (n = 270,000); AID 2326; also: actives are rising curves; nearly all actives have a fitted effect of over 50% in size
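S. cerevisiae expressing influenza A NS1, grown in glucose, washed, then diluted 1:100 into pH 6.0 -URA galactose medium with 23 nl compound. Growth recovery read as OD600; NS1-free strain serves as control.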
SARS PLpro yeast: SARS-CoV PLP inhibition in yeast; S. cerevisiae expressing SARS-CoV PLpro, growth rescue; control for the full effect not named in the record; Potency, µM (top dose mostly 32.9 µM), inactives show at the highest dose activity, positive = growth rescue; actives 0.19% (n = 330,000); also: 0% is about no effect; nearly all actives have a fitted effect of over 55% in size; growth read by luminescence after 48 h
RE007 growth inh: less growth of the S. pombe RE007 Vpr strain | S. pombe RE007 Vpr strain, BacTiter-Glo ATP luminescence, 24 h; control for the full effect not named in the record | Potency, µM (titrated, usually from 92.2 µM), inactives show at the top dose activity change, negative = less growth | actives 0.21% (n = 360,000) | AID 651644; active = well fitted falling curve with a large enough effect; inconclusive = small, poorly fitted or top-dose-only effect; inactive = no such curve, though single readings can be large or run the other way;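 also: % is scaled to controls: 0 for no effect and ±100 for the full control effect; nearly all actives have a fitted effect of over 50% in size; the assay follows cell death caused by Vpr and the record does not say whether a fall means rescue or toxicity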
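Fission yeast RE007 carrying one integrated HIV-1 vpr copy, seeded at OD 0.01 in PMG+AL medium with 23 nL pinned compound. Grown 24 h at 30 degrees; viability read by BacTiter-Glo luminescence after 5 min.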
StopGo reporter: lowers the luciferase signal of an FMDV 2A StopGo reporter | human cells with a luciferase reporter of 2A StopGo recoding; control for the full effect not named in the record | Potency, µM (doses to about 57.9 µM), for inactives: at the top dose signal change, negative = less light | actives 1.2% (n = 410,000) | AID 1159524; active = well fitted falling curve with a large enough effect; inconclusive = small, poorly fitted or top-dose-only effect; inactive = no such curve, though single readings can be large or run the other way; tested in HEK293T cells; also: % is scaled to controls: 0 for no effect and ±100 for the full control effect; nearly all actives have a fitted effect of over 45% in size; luciferase light after 4 h
MARV entry inh: blocks Marburg virus binding to or entry into cells; Marburg virus pseudotyped entry inhibition, cell reporter; control for the full effect not named in the record; about a third of the inactives were read at about 46 µM; actives 1.8% (n = 300,000); Potency, µM (titrated, usually from 37.8 µM), for the others: top-dose activity change, negative = inhibition, hits mostly inhibitors; AID 540276; active = well fitted inhibition curve with a large enough effect; inconclusive = small, poorly fitted or top-dose-only effect, or effect the other way; inactive = flat fitted curve, though single readings scatter; tested in HEK293 cells; about a fifth of its hits are not listed in these tables; also: % is scaled to controls: 0 for no effect and ±100 for the full control effect; luciferase read-out
Starred values were filed as active, the others as inactive; u = inconclusive; x = not tested or not shown; & = joins results of further samples; [ ] = dose if it differs, or a comment. Unless noted, calls follow the shape of the dose curve; as a rule, active means well fitted rising curve with a large enough effect; inconclusive means small, poorly fitted or top-dose-only effect; inactive means no such curve, though single readings can be large or run the other way. Potency is read from the fitted curve at half-maximal effect.

SMILES | Cruzain noTriton | LASV entry inh | Cruzain Triton | NS1 inh | SARS PLpro yeast | RE007 growth inh | StopGo reporter | MARV entry inh
CC1CN(S(=O)(=O)c2cccc(C(=O)N(CCc3ccccc3)Cc3ccccc3)c2)CC(C)O1 (stereo not drawn) | x | -25.1% | x | x | 10.3% | -9.8% | -3.9% | u
CCCN(C(=O)c1cccs1)c1nnc(-c2ccncc2)s1 | -7.5% | 5.8% | -2.4% | -15.2% | -4.2% | -2.5% | 16.9% | 17.0%[46.1 µM]
CC1CCCN(CC(O)COc2ccc3c(c2)OCO3)C1 (stereo not drawn) | x | -8.0% | x | x | 2.0% | 2.7% | -9.4% | 29.1%[46.1 µM]
Nc1c(C(=O)Nc2ccccc2F)sc2nc(-c3cccnc3)ccc12 | x | u | x | -6.3% | -3.7% | 2.0% | 35.4%[activator] | u
Cn1c(=O)c2c(nc3n2CC(COc2ccc(Cl)cc2)O3)n(C)c1=O (stereo not drawn) | x | x | x | 6.7% | 3.0% | 3.0% | -28.7% | x
COc1ccc(CCn2c(O)c(C=NC3CC3)c(=O)[nH]c2=O)cc1OC | -4.4% | -7.4% | 2.9% | -16.1% | 3.2% | -2.4% | -21.2% | -1.6%
OCC1(Cc2ccccc2C(F)(F)F)CCN(Cc2ccc3c(c2)CCO3)CC1 | x | -5.3%[46.1 µM] | x | 4.8% | 0.4% | 2.2% | 0.6% | u
COc1ccc(C(=O)NNC(=O)CSc2nnc(C)n2C)cc1 | x | 2.4%[46.1 µM] | x | 3.2% | 0.1% | 6.3% | 12.1% | 12.4%[46.1 µM]
Cc1ccn2cc(CCNC(=O)C3CCCCC3)nc2c1 | u | x | -11.9% | -0.3% | -2.7% | -11.0% | -1.7% | x
CCCOc1ccc(/C=N/NC(=O)CN(c2ccc(OCC)cc2)S(C)(=O)=O)cc1 | x | -21.9% | x | 0.6% | 0.0% | -27.1% | -12.1% | -14.6%[46.1 µM]
CCN(CC)CCn1c2c(c(SCC(=O)Nc3cccc(C(F)(F)F)c3)nc1=O)CCC2 | 2.8% | 3.7%[46.1 µM] | 0.6% | x | x | x | 1.9% | x
CCSc1nnc(NC(=O)CCc2ccc(OC)cc2)s1 | -28.5% | -25.3% | 0.8% | 5.9% | 5.5% | 0.6% | -17.9% | u
NC(=O)N1CCC2(CC1)NC(=O)N(c1ccccc1)N2 | x | u | x | x | 2.0% | 237.6% | 4.5% | u
CCN(CC)C(=O)C(=O)c1cccn1-c1cccc(-n2cccc2C(=O)C(=O)N(CC)CC)c1C#N | u | -17.5% | 1.6% | -5.1% | -6.8% | 1.8% | -4.8% | u
CCn1c(SCC(=O)Nc2sc3c(c2C(N)=O)CCC(C)C3)nnc1-c1ccco1 (stereo not drawn) | 19.8% | 19.4% | -7.0% | 29.4% | 6.1% | 41.5% | -7.0% | 0.8%
CCN(CC)CCCNC(=O)c1cc(-c2cccc(Cl)c2)on1 | -12.2% | -4.1% | -2.0% | -3.0% | 0.4% | -20.4% | 9.7% | u
N#CCSc1nnc(SCC#N)s1 | x | -8.8% | x | 7.6% | -1.1% | 24.2% | -12.7% | 0.3%[46.1 µM]
CCN1C(=O)N[C@@H](c2ccc(Br)cc2)C(C(=O)OC)=C1C | -2.7%&2.8% | 1.5% | 2.1%&-3.8% | -9.5% | 3.9% | 4.6% | u | -6.3%
COc1nonc1NC(=O)CSc1nc2ccccc2[nH]1 | -24.5% | 28.2% | -5.2% | 3.2% | 1.4% | 12.7% | -13.5% | 12.6%
Nc1c(N)c2ccccc2oc1=O | 0.7% | 4.2% | -3.5% | -7.0% | 5.2% | -12.0% | x | -2.0%
O=C1CCC(C(=O)Nc2cc(C(F)(F)F)ccc2-n2cncn2)=NN1 | x | 11.5%[46.1 µM] | x | 2.0% | 2.9% | 1.9% | -4.0% | u
COc1cccc(CN2CCN(C(=O)c3cc(-c4cccnc4)nc4ccc(C)cc34)CC2)c1 | x | -28.6% | x | -13.7% | -0.6% | 15.1% | -12.1% | 3.7%[46.1 µM]
O=C(Nc1ccc(Cc2ccncc2)cc1)C1CC1 | -8.7% | -29.6% | -0.2% | 4.4% | -0.8% | -11.0% | x | 5.8%
Cc1ccc(C(=O)Cn2c(=N)n(N)c3ccccc32)cc1 | x | x | x | 23.7% | 3.2% | 16.7% | 39.8µM* | x

Record cards, from the list above. Screens in order: Cruzain noTriton	LASV entry inh	Cruzain Triton	NS1 inh	SARS PLpro yeast	RE007 growth inh	StopGo reporter	MARV entry inh
CCN1C(=O)N[C@@H](c2ccc(Br)cc2)C(C(=O)OC)=C1C in the list: -2.7%&2.8%	1.5%	2.1%&-3.8%	-9.5%	3.9%	4.6%	u	-6.3%
Nc1c(N)c2ccccc2oc1=O in the list: 0.7%	4.2%	-3.5%	-7.0%	5.2%	-12.0%	x	-2.0%
Cc1ccc(C(=O)Cn2c(=N)n(N)c3ccccc32)cc1 in the list: x	x	x	23.7%	3.2%	16.7%	39.8µM*	x
CCN(CC)C(=O)C(=O)c1cccn1-c1cccc(-n2cccc2C(=O)C(=O)N(CC)CC)c1C#N in the list: u	-17.5%	1.6%	-5.1%	-6.8%	1.8%	-4.8%	u
O=C1CCC(C(=O)Nc2cc(C(F)(F)F)ccc2-n2cncn2)=NN1 in the list: x	11.5%[46.1 µM]	x	2.0%	2.9%	1.9%	-4.0%	u

A draw from above in order of molar mass, rising:
SMILES | Cruzain noTriton | LASV entry inh | Cruzain Triton | NS1 inh | SARS PLpro yeast | RE007 growth inh | StopGo reporter | MARV entry inh
O=C(Nc1ccc(Cc2ccncc2)cc1)C1CC1 | -8.7% | -29.6% | -0.2% | 4.4% | -0.8% | -11.0% | x | 5.8%
NC(=O)N1CCC2(CC1)NC(=O)N(c1ccccc1)N2 | x | u | x | x | 2.0% | 237.6% | 4.5% | u
COc1cccc(CN2CCN(C(=O)c3cc(-c4cccnc4)nc4ccc(C)cc34)CC2)c1 | x | -28.6% | x | -13.7% | -0.6% | 15.1% | -12.1% | 3.7%[46.1 µM]

Further results follow.
SMILES | Cruzain noTriton | LASV entry inh | Cruzain Triton | NS1 inh | SARS PLpro yeast | RE007 growth inh | StopGo reporter | MARV entry inh
CC1=C(C(=O)Nc2ccccc2F)C(c2ccsc2)C2=C(CC(c3ccccc3)CC2=O)N1 (stereo not drawn) | -24.4% | u | -11.4% | u | -6.7% | -17.9% | -3.9% | u
O=c1[nH]c(=S)[nH]c2c1C(c1ccc(Br)cc1)c1c([nH]c(=S)[nH]c1=O)O2 | x | 0.0%[46.1 µM] | x | 9.7% | 2.0% | 4.2% | -17.9% | 0.1%[46.1 µM]
CC(=O)c1ccc(S(=O)(=O)N(CC(=O)NC2CC2)Cc2ccc(F)cc2)cc1 | x | u | x | x | -8.5% | -9.9% | 14.7% | 9.3%[46.1 µM]
COc1ccc(-c2cc(C)nc3c(-c4ccc(OC)c(OC)c4)c(C)nn23)cc1 | -4.1% | u | 0.9% | x | x | x | -21.8% | u
CCOC(=O)c1c(C)oc2nc(C)nc(NCC3CCN(Cc4cccc(Cl)c4)CC3)c12 | -3.1% | 10.4%[46.1 µM] | -0.4% | x | x | x | 2.6% | x
Nn1c(SCc2cc([N+](=O)[O-])cc3c2OCOC3)nnc1-c1cccnc1 | x | -1.5% | x | x | -4.6% | -2.2% | 1.1% | u

From PubChem BioAssay

Rows are unselected; 4.5% or so of the library scored in one or more.
